Screens as filed in PubChem BioAssay.
STK33 kinase inh = inhibitors of human STK33 kinase; purified STK33, MBP phosphorylation, ADP-Glo luminescence; inhibition, % at 10 µM; hit rate 0.073% among 320,000; AID 2661;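 active means inhibition at or above 25%, using the most active replicate where run in duplicate; inactive means inhibition below 25%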
Target sequence (Q9BYT3 whole entry, looked up): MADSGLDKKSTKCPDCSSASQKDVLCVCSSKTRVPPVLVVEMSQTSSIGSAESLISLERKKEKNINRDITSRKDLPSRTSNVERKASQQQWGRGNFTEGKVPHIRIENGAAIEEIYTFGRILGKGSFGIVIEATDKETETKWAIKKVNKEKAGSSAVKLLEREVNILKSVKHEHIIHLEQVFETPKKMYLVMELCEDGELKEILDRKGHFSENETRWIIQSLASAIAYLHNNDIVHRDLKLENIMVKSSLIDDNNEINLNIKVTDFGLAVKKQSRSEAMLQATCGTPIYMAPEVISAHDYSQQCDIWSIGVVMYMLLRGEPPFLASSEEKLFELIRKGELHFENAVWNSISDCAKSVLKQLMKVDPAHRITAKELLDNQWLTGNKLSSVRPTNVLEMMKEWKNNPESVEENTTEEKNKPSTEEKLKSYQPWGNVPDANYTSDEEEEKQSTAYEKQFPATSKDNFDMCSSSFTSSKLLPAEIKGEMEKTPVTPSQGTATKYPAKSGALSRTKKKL
* marks the source's active call; other numbers are inactive results; & = joins results of further samples.

SMILES	STK33 kinase inh
C=C(C)c1cccc(C(C)(C)NC(=O)N2CCN(C)CC2)c1	0.0
O=C(O)c1ccc(N(Cc2ccccc2)S(=O)(=O)c2ccccc2)cc1	-1.7&-0.1
COc1ccc2sc(N(CCCN(C)C)C(=O)c3ccc(S(=O)(=O)N4CCCc5ccccc54)cc3)nc2c1	2.4
O=C1C2C3c4ccccc4C(c4ccccc43)C2C(=O)N1c1cccnc1 (configuration not stated)	-1.0
CC1CCN(C(=O)CCCC(=O)O)CC1	0.7
Nc1cccc(/C=C/c2ccncc2)c1	1.2
Cc1c(O[C@@H]2O[C@H](CO)[C@@H](O)[C@H](O)[C@H]2O)ccc2c1oc(=O)c1ccccc12	4.0
O=C(N/C(=C\c1cccnc1)C(=O)N1CCC(O)CC1)c1ccccc1	-0.3
C=CCn1c(NCc2ccccc2OC)nc2ccccc21	1.4
COc1ccc(OCCNC(=O)c2ccccc2Cl)cc1	-0.6
COc1ccc(C2Nc3ccccc3C(=O)N2Cc2ccccc2)cc1OC (configuration not stated)	-0.9
Cc1ccc(-c2nc(-c3ccncc3)no2)cc1	-1.6

4 of the compounds above, comma-delimited.
mol,STK33 kinase inh
COc1ccc2sc(N(CCCN(C)C)C(=O)c3ccc(S(=O)(=O)N4CCCc5ccccc54)cc3)nc2c1,2.4
Cc1ccc(-c2nc(-c3ccncc3)no2)cc1,-1.6
O=C1C2C3c4ccccc4C(c4ccccc43)C2C(=O)N1c1cccnc1 (configuration not stated),-1.0
Cc1c(O[C@@H]2O[C@H](CO)[C@@H](O)[C@H](O)[C@H]2O)ccc2c1oc(=O)c1ccccc12,4.0

(list continues)
SMILES	STK33 kinase inh
O=C(CCN1C(=O)/C(=C/c2ccco2)SC1=S)Nc1ccc(O)cc1C(=O)O	3.9
CS(=O)(=O)N(CC(=O)NCC1CCCO1)c1ccc(F)c(Cl)c1 (configuration not stated)	-0.1
O=C1N=C(N2CCOCC2)S/C1=C1\C(=O)N(Cc2ccccc2)c2ccccc21	4.7
CCC(=O)N1CCc2cc(S(=O)(=O)NCCC(=O)N3CCN(c4ccccn4)CC3)ccc21	-0.4
O=C1/C(=C/c2ccccc2)SC(=S)N1CCCC(=O)N1CCCCC1CCO (configuration not stated)	-1.2
Cc1cc(C(=O)CSc2nn3c(=O)c(C(C)(C)C)nnc3s2)c(C)n1C	-0.3
O=C(Nc1ccc2c(c1)OCO2)c1noc2c1CCCC2	-0.5
O=[N+]([O-])c1ccc(NC2CCN(Cc3ccccc3)CC2)c([N+](=O)[O-])c1	-0.9
CCCCCCn1c(CN2CCCCC2)nc2c1c(=O)n(C)c(=O)n2C	-1.1
CCOC(=O)c1c2ccccc2[n+]([O-])n1CCO	0.6
COc1ccc2c(c1OC)C(=O)OC2CC(=O)c1ccc(O)cc1 (configuration not stated)	1.1
CC(C)C(NC(=O)c1ccccc1F)C(=O)Nc1nccs1 (configuration not stated)	-1.4

Next section, starting with the last three of the part before.
SMILES	STK33 kinase inh
CCOC(=O)c1c2ccccc2[n+]([O-])n1CCO	0.6
COc1ccc2c(c1OC)C(=O)OC2CC(=O)c1ccc(O)cc1 (configuration not stated)	1.1
CC(C)C(NC(=O)c1ccccc1F)C(=O)Nc1nccs1 (configuration not stated)	-1.4
CC(=O)N(CCO)Cc1cc2cc(C)cc(C)c2[nH]c1=O	-0.3
CCc1ccc(NC(=O)CCn2nc(C)c(S(=O)(=O)N3CCCCC3)c2C)cc1	-1.0
Cc1ccc(S(=O)(=O)N(CC(=O)NCCSc2ccccn2)c2cc(C)cc(C)c2)cc1	-1.9
CN(CCNC(=O)C1CC(=O)N(c2ccc(F)c(Cl)c2)C1)Cc1ccccc1 (configuration not stated)	1.7
CC(NC(=O)CCCC1CCCCC1)c1ccc(S(N)(=O)=O)cc1 (configuration not stated)	-0.4
COc1ccc(Br)c(C(=O)Nc2cccc(Cl)c2Cl)c1	2.0
CCc1ccc(/C=C\C(=O)N2CCc3ccccc3C2)cc1	0.1
CC(=O)c1c(C)[nH]c(C(=O)NCc2cccc(Cl)c2)c1C	-0.2
Cc1onc(-c2ccncc2)c1C(=O)O	-0.3
CN1C2CCC1CC(NC(=O)CSc1ccc(Cl)cc1)C2 (configuration not stated)	-0.8
Cc1cc(S(=O)(=O)Nc2cccc([N+](=O)[O-])c2)c(C)s1	-0.5
Cc1ccc(S(=O)c2snnc2C)cc1 (configuration not stated)	-0.6

Two entries drawn at random from the list so far:
SMILES	STK33 kinase inh
O=C1C2C3c4ccccc4C(c4ccccc43)C2C(=O)N1c1cccnc1 (configuration not stated)	-1.0
CC(NC(=O)CCCC1CCCCC1)c1ccc(S(N)(=O)=O)cc1 (configuration not stated)	-0.4

Next part:
SMILES	STK33 kinase inh
c1ccc(Cn2nnnc2C(c2ccccc2)N2CCN(c3nc4ccccc4s3)CC2)cc1 (configuration not stated)	-0.5
CCOC(=O)C(C)(C)N(Cc1cccc(C)c1)S(=O)(=O)c1ccc(Cl)c([N+](=O)[O-])c1	-1.2
CC1(C)S[C@@H]2[C@H](NC(=O)C(NC(=O)N3CCNC3=O)c3ccccc3)C(=O)N2[C@H]1C(=O)O (some centres not stated)	-1.8
CCCCNC(=O)C1CCCN1C(=O)NC1CCCCC1 (configuration not stated)	1.3
O=C(Nc1ccc(CSc2ccccc2)cc1)c1ccc(CN2CCOCC2)cc1	-0.7
COC(=O)/C=C1/S/C(=N/NC(=O)c2ccc(OC)cc2)NC1=O	0.6
N#C/C(=C/c1ccc(N2CCCCC2)o1)C(=O)Nc1ccc(Cl)cc1	-2.1
COc1ccccc1CN(C)C(=O)CN1C(=O)c2ccccc2C1=O	-1.9
NC(=O)COC(=O)c1cccc(S(=O)(=O)N2CCCCC2)c1	0.2
Cc1cc2ccccc2c(=O)n1CC(=O)N(C)c1ccc(F)cc1	0.2
COc1ccc(-n2nc3c(N4CCC(C(=O)NCc5ccccc5)CC4)nnc(C)c3c2C)cc1	-0.5
Cc1ccsc1C(=O)Nc1cc(C(C)(C)C)nn1-c1ccccc1	-0.6
Cc1ccccc1NC(=O)c1cc(S(=O)(=O)N2CCOCC2)cn1C	-2.5
COc1ccc2c(CC(=O)N[C@@H](Cc3c[nH]c4ccccc34)C(=O)O)cc(=O)oc2c1	-0.8
CCC(C)[C@H](NC(=O)Nc1ccc(S(N)(=O)=O)cc1)C(=O)O (some centres not stated)	-5.5
O=C(CCN1C(=O)c2ccccc2S1(=O)=O)NCc1ccco1	0.3
CCc1ccc(/C=N\NC(=O)c2ccc(Br)o2)s1	1.8
N/C(Cc1ccc([N+](=O)[O-])cc1)=N\OC(=O)COc1cccc2ccccc12	-1.5
O=C(CCC(=O)c1cccs1)NCc1cccc(C(F)(F)F)c1	-1.3
CN(C)c1ccc(/C=C2\C(=N)N3N=C(CC(=O)N4CCCC4)SC3=NC2=O)cc1Br	-2.2
COc1ccc(N2CCCn3c2nc2c3c(=O)n(Cc3ccc(C)cc3)c(=O)n2C)c(OC)c1	-1.8
CCN(c1ccccc1)S(=O)(=O)c1ccc(Cl)c(NC(=O)COC(=O)c2cccc(OC)c2O)c1	-1.5
O=C(NCCN1CCOCC1)/C(=C\c1ccc(Br)cc1)NC(=O)c1cccs1	-4.1
Cc1c(/C=N\NC(=O)C2(C)CC2(Cl)Cl)cnn1C (configuration not stated)	-2.2
CCc1ccc(NC(=O)N(Cc2ccco2)C(C)c2cccs2)cc1 (configuration not stated)	0.9
COC(=O)C1CCN(C(=O)CSc2ccccc2)CC1	0.1
COc1ccc(S(=O)(=O)N2CCCCCC2)cc1C(=O)N(CC(C)C)C1CCS(=O)(=O)C1 (configuration not stated)	-2.5
COCCCNC(=S)Nc1c(C)cc(C)cc1C	-3.3
COc1cc(OC)cc(C(=O)NC(c2ccccc2)c2ccccc2)c1	0.2
c1ccc2sc(Sc3ncnc4sccc34)nc2c1	-0.9
Cc1ccc(SCCC(=O)OCC(=O)Nc2ncc(Cl)cc2Cl)cc1	0.5
O=C(CCc1nc2ccccc2c(=O)[nH]1)N1CCN(c2ccc(F)cc2)CC1	-1.3
Cc1cnc(NC(=O)c2ccncc2)s1	6.2
COC(=O)c1ccccc1NC(=O)c1noc2c1CC(C(C)(C)C)CC2 (configuration not stated)	-0.7
CCOC(=O)c1c(C)n(O)c2ccc(Cl)cc2c1=O	1.2
COc1ccccc1N1CCN(C2CCN(C(=O)c3cccs3)CC2)CC1	-0.5

Molecules shown so far with fluorine (6):
SMILES	STK33 kinase inh
CS(=O)(=O)N(CC(=O)NCC1CCCO1)c1ccc(F)c(Cl)c1 (configuration not stated)	-0.1
CC(C)C(NC(=O)c1ccccc1F)C(=O)Nc1nccs1 (configuration not stated)	-1.4
CN(CCNC(=O)C1CC(=O)N(c2ccc(F)c(Cl)c2)C1)Cc1ccccc1 (configuration not stated)	1.7
Cc1cc2ccccc2c(=O)n1CC(=O)N(C)c1ccc(F)cc1	0.2
O=C(CCC(=O)c1cccs1)NCc1cccc(C(F)(F)F)c1	-1.3
O=C(CCc1nc2ccccc2c(=O)[nH]1)N1CCN(c2ccc(F)cc2)CC1	-1.3

Later entries.
SMILES	STK33 kinase inh
CC(C)CC(O)(CC(C)C)C(=O)NNc1ccccc1	-0.7
O=C(Nc1ccccc1Sc1ccccc1)c1ccccc1	0.8
CN(C)C1=NCC(CSC(=N)N)S1 (configuration not stated)	0.9
O=C(Nc1nnc(C2=COCCO2)o1)c1cccc([N+](=O)[O-])c1	0.0
Cc1cc(C(=O)Nc2ccc(Cl)cc2)on1	1.8
COc1ccc(C2CC(=O)c3c(O)cc(O)cc3O2)c(CC=C(C)C)c1OC (configuration not stated)	-0.4
CCNC(=S)N1CCN(CCN=CC2=C(O)CC(C)(C)CC2=O)CC1	-2.2
O=C(ON=C1CCN(S(=O)(=O)c2ccccc2)CC1)c1cccc(Cl)c1	0.0
Cc1cc(C)c(S(=O)(=O)c2cc(F)ccc2C)c(Cl)n1	-0.9
O=C(CN1C(=O)c2cccc3cccc1c23)Nc1ccccc1	-1.2
COc1cc(CNC(=O)C2CC2)ccc1OCc1ccccc1	0.1
CC(C)c1ccccc1NC(=O)CN1C(=O)c2ccccc2C1=O	-1.0
CCCC(=O)Nc1ccc(Cl)c(NC(=O)c2cccnc2Cl)c1	-0.7
CN(C)CCOC(c1ccccc1)c1ccccc1	-1.1
CCCCCN(C(=O)CCC(=O)OCC(=O)c1ccc(C(C)(C)C)cc1)c1c(N)n(CCCC)c(=O)[nH]c1=O	0.4

An excerpt; most or all hits stand in other tables.
